Screening results: PubChem, several laboratories
CBX7 inh = blocks human CBX7 binding to H3K27me3 peptide; O95931; AlphaScreen His6-CBX7 / biotin-H3K27me3 peptide binding; stronger effect = lower value; normalised signal (fraction of DMSO) (concentration not given with the values); 1.1% of 66,000 active; in the data active = normalised signal below about 0.5;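 also: 100 nL library stock added to about 20 µL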
Target sequence (O95931 whole entry, looked up): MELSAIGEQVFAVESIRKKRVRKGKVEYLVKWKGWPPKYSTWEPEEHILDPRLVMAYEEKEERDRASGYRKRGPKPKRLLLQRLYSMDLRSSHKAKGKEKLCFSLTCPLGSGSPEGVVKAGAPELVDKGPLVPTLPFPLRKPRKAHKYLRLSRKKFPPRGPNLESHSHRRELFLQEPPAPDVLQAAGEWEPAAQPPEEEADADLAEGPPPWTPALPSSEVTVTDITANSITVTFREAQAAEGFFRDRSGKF
CBX7 inh z-score = recorded beside CBX7 inh, whose call it bears; z-score; measured here: z-score of CBX7 signal; some inactives read as strong as hits; reference of the scale not given here;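 same signal on another scale; lower means less binding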
Starred values were filed as active, the others as inactive; & = joins results of further samples. An excerpt; the hit share may differ from the screen's.

Start of the data: the first 2 compounds, to show the layout:
SMILES | CBX7 inh | CBX7 inh z-score
Cc1ccc(-c2csc(NC(=O)c3ccc(S(=O)(=O)N4CCOCC4)cc3)n2)cc1 | 0.95 | -0.76
COCc1nc2ccccc2n1CCOc1ccc(C(C)(C)C)cc1 | 0.69 | -5.7

Main list, previewed entries included:
SMILES | CBX7 inh | CBX7 inh z-score
Cc1ccc(-c2csc(NC(=O)c3ccc(S(=O)(=O)N4CCOCC4)cc3)n2)cc1 | 0.95 | -0.76
COCc1nc2ccccc2n1CCOc1ccc(C(C)(C)C)cc1 | 0.69 | -5.7
CCOC(=O)c1c(-c2ccccc2)oc2ccc(NS(=O)(=O)c3ccc(C)cc3)cc12 | 0.87 | -4.3
COc1ccc(-c2nc(C#N)c(NCC(C)C)o2)cc1 | 0.9 | -1.1
O=C(c1ccc2c(c1)ncn2-c1cccc(F)c1)N1CCOCC1 | 0.95 | -0.59
O=C(COc1ccc(Cl)cc1)NCc1nnc(SCC(=O)Nc2ccc(F)cc2F)o1 | 0.98 | -0.34
CC1(C)CC(=O)c2sc(NC(=O)c3ccc(Cl)c(Cl)c3)nc2C1 | 1 | 0.67
CCc1ccc(NC(=O)CCc2nc3cccnc3n2Cc2ccc(OC)cc2)cc1 | 1 | 0.64
COc1ccc(N2C(=O)CC(N3CCN(C(c4ccccc4)c4ccc(Cl)cc4)CC3)C2=O)cc1 (stereo not drawn) | 0.8 | -10
CCCN1CCN(C(=O)Cn2cnc3scc(-c4ccccc4)c3c2=O)CC1 | 1 | 0.3
COc1ccc(CCNC(=O)c2cnn(-c3ccccc3)c2-n2cccc2)c(OC)c1 | 0.95 | -1.9
O=C(NC1CCCCCCC1)C1c2cccn2CC(=O)N1Cc1ccc(F)cc1 (stereo not drawn) | 0.95 | -0.14
Clc1ccc(-c2csc(N3CCN(C(c4ccccc4)c4ccccc4)CC3)n2)cc1 | 1 | 0.85
Cc1ccc(CNC(=O)c2cccc3c2C(=O)N(Cc2cccnc2)C3)cc1 | 1 | 0.022
COc1ccc(Cl)cc1Nc1nnc(Cc2cccnc2)c2ccccc12 | 0.96 | -0.85
COc1ccccc1Nc1nc(-c2sc(N)nc2C)cs1 | 0.37* | -12*
O=C1N2CCOc3ccc(Cl)cc3C2(c2ccccc2)C(=O)N1S(=O)(=O)c1ccccc1 (stereo not drawn) | 0.91 | -1.3
Cc1ccc(Cc2c(C)nc3c(C(=O)O)cnn3c2C)cc1 | 0.81 | -2.5
COc1ccc(-c2csc(NC(=O)c3cccnc3)n2)cc1 | 0.96&0.95 | -0.45&-1.2
COc1ccc(Cl)cc1NC(=O)c1oc2ccc(S(=O)(=O)N3CCCC3)cc2c1C | 1 | 0.57
COc1cccc(C(=O)NC(C)C(c2cccs2)N2CCOCC2)c1 (stereo not drawn) | 1 | 0.52
COc1ccccc1NC(=O)N1CCN(c2ccccn2)CC1 | 0.94 | -1.3
COc1ccccc1NC(=O)Nc1nnc(N2CCC(C)CC2)s1 | 0.71 | -1.2
COc1ccc(OC)c(CCNC(=O)c2ccc3c(c2)N(Cc2ccc(F)cc2)CCS3)c1 | 0.74 | -8.5
C=CCN(C(=O)Cn1c(SCc2ccc(C)cc2)nc2ccncc21)c1ccccc1 | 0.97 | -0.41
Cc1ccc(-n2ncc(C(=O)NCc3ccccc3)c2C2CCN(C(=O)OC(C)(C)C)CC2)cc1C | 0.95 | -2.2
Cc1ccccc1Nc1c(-c2ccc(Cl)cc2)nc2ccccn12 | 1 | -0.02
CCc1ccccc1NC(=O)CSc1nc2nc(C)c(Cc3ccc(C)cc3)c(C)n2n1 | 1 | 0.38
Cc1c(C(=O)NCc2ccccn2)sc2ncn(CC(=O)N3CCC(C)CC3)c(=O)c12 | 0.95 | -1.4
O=C(NCc1ccccc1Cl)c1ccc(CNc2c(N3CCOCC3)c(=O)c2=O)cc1 | 0.93 | -0.16
Cc1cc(C)nc(Nc2nc(-c3ccccc3)c3ccc(Cl)cc3n2)n1 | 0.56 | -5.3
COc1ccc(-c2nc(C)ncc2-c2csc(C)n2)c(O)c1OC | 1 | 0.16
CCOc1ccc(NC(=O)c2cnn(-c3ccccc3)c2C2CCN(C(=O)OC(C)(C)C)CC2)cc1 | 0.98 | -0.21
CC(C)NC(=O)CC1C(=O)N(Cc2ccccc2)C(C)c2nc3ccccc3n21 (stereo not drawn) | 0.89 | -1.8
CCN(CC)c1ccc(Nc2nc(-c3c(C)nc4cc(C)ccn34)cs2)cc1 | 0.24* | -21*
CC1CCN(c2nc3ccc(C(=O)NCc4cccnc4)cc3s2)CC1 | 0.95 | -1.1
Cc1ccc2c(c1)C(c1ccc(F)cc1)N(C(=O)C(C)C)CC(=O)N2 (stereo not drawn) | 1.1 | 1.6
Cc1c(C(=O)NC2CCCCC2)oc2ccc(S(=O)(=O)N3CCOCC3)cc12 | 0.94 | -0.61
O=C(CSc1nnc(Cc2cc(=O)[nH]c(=O)[nH]2)n1-c1ccc(F)cc1)N1CCOCC1 | 1 | 0.35
CCOc1ccc(Nc2cc(C(=O)NC3CCCCC3C)c3ccccc3n2)cc1 (stereo not drawn) | 0.97 | -0.73
O=C(CCS(=O)(=O)c1nc(-c2ccc3c(c2)OCO3)cc(C(F)(F)F)n1)Nc1cccnc1 | 0.92 | -0.75
O=S(=O)(c1ccc(Cl)cc1)c1nc(-c2cccc(Br)c2)oc1N1CCCCC1 | 0.74 | -9
Cc1nc2ncnn2c(C)c1CCC(=O)Nc1ccc2nc(-c3cccnc3)[nH]c2c1 | 1.1 | 2.5
Cc1noc(C)c1S(=O)(=O)Nc1cccc(Cl)c1 | 1 | 2.2
CCOc1ccccc1CN1CCC(CNC(=O)CN2C(=O)C(CC)Oc3ccc(C)cc32)CC1 (stereo not drawn) | 0.95 | -0.62
Clc1ccc2nc(-c3ccncc3)c(NC3CCCCC3)n2c1 | 1 | 0.024
CCOc1ccc(CN2C(=O)c3ccccc3C2C(=O)NCC2CCCO2)cc1 (stereo not drawn) | 1.1 | 0.07
CC1(C)NC(=O)N(CC(O)Cn2c3ccccc3c3ccccc32)C1=O (stereo not drawn) | 1 | 0.088
CCOC(=O)c1cnc2c(C)cc(C)cc2c1NCc1cccnc1 | 1.2 | 2
O=C(Nc1cccnc1Cl)c1cc(-c2ccc(F)cc2)on1 | 1.1 | 0.1
COCCNc1nc(Cc2ccccc2)nc2sc3c(c12)CCCC3 | 1.1 | 1.9
Cc1ccc(C)c2[nH]c(=O)c(CCNC(=O)c3ccccc3C(F)(F)F)cc12 | 1.1 | 1.1
O=C(O)Cc1sc(-c2ccccc2)nc1-c1ccc(Br)cc1 | 1 | 0.13
Fc1cccc(Cl)c1COc1ccc(-c2nc(-c3ccccc3)c(-c3ccccc3)[nH]2)cc1 | 0.81 | -5.2
CCCC1=Nc2cc(C(=O)NCCCN3CCOCC3)ccc2Sc2ccccc21 | 1.1 | 1.1
Cc1oc(-c2cccc(Cl)c2)nc1CS(=O)(=O)CC(=O)NC1CCC(C)CC1 (stereo not drawn) | 1 | 0.81
COc1ccc(Nc2cc(C(=O)NCCCN3CC(C)CC(C)C3)c3ccccc3n2)cc1OC (stereo not drawn) | 0.64 | -4.3
CCc1ccc2[nH]cc(S(=O)(=O)c3ccc(C)cc3)c(=O)c2c1 | 1 | 1
COc1ccc(C(=O)Nc2ccc3oc(-c4cccnc4)nc3c2)cc1Cl | 1.1 | 1.3
Cc1cc(=O)n2nc(N3CCCC(C(=O)NCCCOC(C)C)C3)sc2n1 (stereo not drawn) | 0.65 | -2.7

Some of the entries so far, field by field.
CCOC(=O)c1cnc2c(C)cc(C)cc2c1NCc1cccnc1
  CBX7 inh: 1.2	CBX7 inh z-score: 2

O=C(Nc1cccnc1Cl)c1cc(-c2ccc(F)cc2)on1
  CBX7 inh: 1.1	CBX7 inh z-score: 0.1

COCCNc1nc(Cc2ccccc2)nc2sc3c(c12)CCCC3
  CBX7 inh: 1.1	CBX7 inh z-score: 1.9

Cc1ccc(C)c2[nH]c(=O)c(CCNC(=O)c3ccccc3C(F)(F)F)cc12
  CBX7 inh: 1.1	CBX7 inh z-score: 1.1

Five entries out of the list above, ordered by the value under CBX7 inh z-score, low to high.
SMILES | CBX7 inh z-score
COc1ccccc1Nc1nc(-c2sc(N)nc2C)cs1 | -12*
Cc1c(C(=O)NCc2ccccn2)sc2ncn(CC(=O)N3CCC(C)CC3)c(=O)c12 | -1.4
O=C(c1ccc2c(c1)ncn2-c1cccc(F)c1)N1CCOCC1 | -0.59
CCCN1CCN(C(=O)Cn2cnc3scc(-c4ccccc4)c3c2=O)CC1 | 0.3
COc1ccc(C(=O)Nc2ccc3oc(-c4cccnc4)nc3c2)cc1Cl | 1.3

Additional records.
SMILES | CBX7 inh | CBX7 inh z-score
O=C(CCCCCn1c(=O)c2sccc2n(Cc2ccc(F)cc2)c1=O)NCc1ccccc1 | 0.99 | -0.17
COc1cccc(C(=O)N2CCNc3ccccc3C2)c1 | 1 | 0.43
COc1ccc(NC(=O)c2cc(C)nn2-c2ccccc2)cc1Cl | 1 | 0.63
CCCCNC(=O)c1cc(-c2ccncc2)nc2ccc(S(=O)(=O)N3CCC(C)CC3)cc12 | 1 | 0.64
CCn1cc2c(c1-c1ccccc1)c(=O)n(C)c(=O)n2C | 1 | 0.15
CCN(CCCNC(=O)CCn1c(=O)[nH]c2ccccc2c1=O)c1cccc(C)c1 | 1 | 0.0019
O=C(NC1CCCC1)C1c2ccccc2C(=O)N1Cc1ccccc1 (stereo not drawn) | 1 | 0.36
CC(C)Oc1cccc(C(=O)Nc2ccc3oc(-c4cccc(Cl)c4)nc3c2)c1 | 1.1 | 4
O=C(CSc1nnc(Cc2cc(=O)[nH]c(=O)[nH]2)n1-c1ccc(F)cc1)c1ccccc1 | 1.1 | 1.7
O=C(Nc1nnc(CCS(=O)(=O)c2ccc(Cl)cc2)s1)c1ccc(Cl)cc1 | 0.99 | -0.29
Cc1ccc(CN2C(=O)CSc3ccc(C(=O)NCCCN4CCOCC4)cc32)cc1 | 0.99 | -0.31
COc1ccccc1OCC(O)Cn1c(C(F)(F)F)nc2ccccc21 (stereo not drawn) | 1 | -0.02
CCc1cc(Br)ccc1-n1nc(-c2ccc(Cl)cc2)cc1-c1ccc(Cl)cc1 | 0.99 | -0.17
Cc1ccccc1Nc1c(-c2ccccn2)nc2ccccn12 | 0.13* | -17*
Fc1ccc(Nc2nc3nonc3nc2N2CCC(Cc3ccccc3)CC2)cc1 | 0.83 | -2.3
Cc1onc(-c2ccccc2Cl)c1C(=O)Nc1ccccc1Cl | 0.94 | -0.24
CC(=O)NC(CCS(C)(=O)=O)C(=O)Nc1ccc(F)c(F)c1 (stereo not drawn) | 1 | 1.2
O=C(CCCN1C(=O)CSc2ncccc21)N1CCc2ccccc21 | 1 | 0.053
CCOc1ccc(NC(=O)Nc2cc(C)on2)cc1 | 1 | 0.047
COc1ccc(-c2nnc(NC(=O)c3ccc(S(=O)(=O)N4CC(C)OC(C)C4)cc3)o2)cc1 (stereo not drawn) | 0.53 | -11
CC(C)OC(=O)c1ccc(Nc2nc3ccccc3nc2NS(=O)(=O)c2ccc(Cl)cc2)cc1 | 1.1 | 5.3
Cc1ccc(CCNC(=O)CCN2N=C(c3ccc(C)cc3)CCC2=O)cc1 | 1.1 | 0.91
COc1ccc(NC(=O)c2cc3c(-c4ccc(OC)c(OC)c4)nn(C)c3s2)c(OC)c1 | 0.87 | -1.3
CC(C)(C)c1ccc(OCCCC(=O)Nc2ccc(N3CCOCC3)cc2)cc1 | 0.98 | -0.52
COc1ccc(NC(=O)c2cccc3c2C(=O)N(C2CCCCC2)C3)cc1Cl | 0.98 | -0.34
Cn1ccc(C(=O)Nc2ccc(C(=O)O)cc2)n1 | 1 | -0.034
Cc1ccc(C)c(Cn2c(SCc3cccc(F)c3)nc3ccncc32)c1 | 0.98 | -1.1
Cc1ccc(NC(=O)Cn2cc(S(=O)(=O)c3ccc(Cl)cc3)c(=O)c3ccccc32)cc1 | 0.78 | -3.1
COCCNC(=O)CN1C(=O)CSc2cc(S(=O)(=O)N3CCCCCC3)ccc21 | 1 | 1.8
COc1cc(OC)c(OC)cc1CN1CCN(Cc2ccccc2Br)CC1 | 0.75 | -3
Cc1cc(N2CCc3ccccc32)nc2cccc(O)c12 | 0.86 | -2.8
O=C(NCc1ccc(F)cc1)[C@H](Cc1ccccc1)N1Cc2ccccc2C1=O | 0.94 | -0.17
COc1ccc(C2NC(c3ccc(OC)cc3)C3CCCC2C3=O)cc1 (stereo not drawn) | 1.1 | 1.5
CCOC(=O)c1nc(Nc2ccc(Br)cc2)c2ccccc2n1 | 1.1 | 0.096
Cn1c(C(=O)N2CCC(C(=O)NCCCN3CCc4ccccc4C3)CC2)cc2sccc21 | 1 | 0.4
CCOc1ccc(-n2c(C)nc3cc(C(=O)NCCCN4CCOCC4)ccc32)cc1 | 1.1 | 3.3
CCOCCCNC(=O)c1ccc2c(c1)N(Cc1ccccc1)C(=O)c1ccccc1S2=O (stereo not drawn) | 0.98 | -0.44
Cc1cc(N2CCCCC2)nc2ccc(NC(=O)CCC(=O)N3CCCCC3C)cc12 (stereo not drawn) | 0.99 | -0.22
COc1ccc(Nc2c3c(nc4ccc(Cl)cc24)CCCC3)cc1Cl | 1.1 | 0.074
COC(=O)c1ccc(NC(=O)CC2Sc3ccccc3NC2=O)cc1 (stereo not drawn) | 1 | 0.21
COc1ccc(CCNC(=O)c2onc(C)c2Cl)cc1OC | 1 | 1.5
CCOc1ccc(Nc2cc(C(=O)NCC3CCCO3)c3ccccc3n2)cc1 (stereo not drawn) | 0.86 | -2.1
